# High-throughput results deposited in PubChem by several laboratories.
# Mtb hypoxia inh – inhibitors of hypoxia-regulated fluorescent reporter in Mycobacterium tuberculosis; 0.1% of 300,000 active; fluorescence inhibition, % (concentration not given with the values); M. tuberculosis hypoxia-regulated fluorescent reporter, fluorescence;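 active means 35 to 45% if threefold the growth effect, above 45% if 1.5-fold the growth effect; inactive means the rest, general growth blockers included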;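 further: wells of about 50 µL received 100 nL stock; 0% = vehicle wells and 100% = reference inhibitor wells; whole bacteria with a GFP reporter of the hypoxia response; strong numbers were not always called active; many hits fall short of the cut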
# BJeLR lethal – kills HRASV12-expressing BJeLR cells. BJeLR (HRASV12) viability, CellTiter-Glo ATP luminescence, 48 h; reference of the scale not given here. inhibition, % (concentration not given with the values). 0.17% of 300,000 active. AID 1554;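 active means replicate mean above 50%; inconclusive means above 50% but judged a plate artefact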;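 further: 50 nL library stock added to about 25 µL; numbers are from one replicate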
# Sa ugtP lethal – compounds lethal to S. aureus RN4220 ugtP deletion mutant; OD600 growth, 16 h; some inactives read as strong as hits; growth inhibition, % (no concentration beside the values); 0.54% of 330,000 active;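 active means z-score under -3 and OD600 up to 0.15 on both plates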;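 further: plate controls were untreated wells for no effect and antibiotic for full effect; wells of about 80 µL received 100 nL stock; the first replicate is given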
# PrP UTR inh – suppresses PrP 5' UTR mRNA reporter expression; AID 488862; 0.35% of 340,000 active; inhibition, % (no concentration beside the values); cell-based PrP 5' UTR mRNA reporter, plate reader;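 active means every replicate at 50% or more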;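 further: 0 = median of the neutral control wells; tested in H4 reporter cells; numbers are from one replicate; inactives centre near -14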
# Bead autofluor – flagged as autofluorescent in microsphere protease counterscreen. 3.1% of 360,000 active. compound autofluorescence counterscreen, microsphere flow cytometry; hits give high values. fluorescence intensity (no concentration beside the values);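 active means at least 3 SD above the mean of all compounds, about 16000 in these data; inconclusive means too few beads counted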;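 further: 100 nL of 1 mM stock went into each well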
# Sa RN4220 lethal – S. aureus RN4220 growth inhibition; OD600, 16 h; inhibition, % (test concentration not listed); 0.33% of 330,000 active; AID 1259311;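 active means z-score of -3 or lower and OD600 up to 0.18 on both plates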;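 further: plate controls were untreated cells for no effect and reference antibiotic for full effect; stock transfer was 100 nL into about 80 µL; one replicate is shown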
# Mtb hypoxia inh growth – also measured in Mtb hypoxia inh; calls as there; growth inhibition, %; measured here: M. tuberculosis growth (absorbance);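 0% = vehicle and 100% = reference antibiotic; read after six days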
# The depositor's hits bear a star; ? = inconclusive; . = not tested or not shown.
SMILES,Mtb hypoxia inh,Mtb hypoxia inh growth,BJeLR lethal,Sa ugtP lethal,PrP UTR inh,Bead autofluor,Sa RN4220 lethal
O=C(Nc1cccnc1Cl)c1cc(-c2ccco2)on1,9.5,4.8,-6.3,6.6,-117.2,6736,3.4
COC(=O)CSc1nnc(-c2ccc(OC)c(OC)c2)o1,.,.,-7.4,.,-0.9,4772,.
CCOc1ccccc1C(=O)NN1C(=O)C2CCCCC2C1=O (stereo not drawn),12.9,7.1,-15.6,8.2,-31.4,2319,5.6
O=C1OC(/C(=C\Nc2ccc(F)cc2F)[N+](=O)[O-])c2ccccc21 (stereo not drawn),-1.9,8.4,3.9,3.9,5.6,3778,0.8
CCOc1ccc(S(=O)(=O)N(C)CC(=O)NC2CC2)cc1,-3.6,-2.9,7.2,5.8,-12.9,5891,1.3
O=C(COC(=O)C1CCN(c2ccc(C(F)(F)F)cn2)CC1)Nc1ccc(F)cc1[N+](=O)[O-],-3.5,-4.4,-7.6,11.6,-6.7,?,5.9
CCN(C(=O)CC(C)C)c1nnc(Cn2nnc3ccccc32)s1,-2.4,14.6,8.4,-4.1,-19.8,2036,-0.4
Cc1onc(-c2ccccc2)c1C(=O)NNC(=S)NC(=O)c1ccc2c(c1)OCO2,3.2,-1.0,-7.3,21.5,-20.4,3729,28.7
CCN1CNC(=S)N(c2cccc(C)c2)C1,2.8,9.7,-15.3,6.6,-13.1,3862,3.9
Cc1cccc(-n2nnc(C(=O)Nc3ccc(F)cc3)c2N)c1,5.9,9.0,-6.7,-4.7,-60.0,3841,2.0
O=C(NCCCN1CCCC1=O)NC12CC3CC(CC(C3)C1)C2,-2.0,-1.6,-15.2,-0.4,-5.7,4149,4.1
COCCn1c(N)c(N(Cc2ccccc2)C(=O)CSCC(=O)Nc2ccc(OC)cc2)c(=O)[nH]c1=O,-5.1,-4.9,-17.1,7.8,-11.2,6542,4.3
COc1ccc(C(=O)CSc2nnc(CNC(=O)c3ccc(OC)c(OC)c3)n2C)cc1,10.0,1.9,-13.3,3.7,8.4,2418,-8.8
C=CCNC(=S)NNC(=O)C(CCCC)CC(C)O (stereo not drawn),.,.,-3.2,-4.9,-18.3,4797,-4.5
CC1CCCCC1NS(=O)(=O)c1ccc(S(=O)(=O)N2CCN(CCC#N)CC2)cc1 (stereo not drawn),.,.,-3.7,9.8,5.0,5802,2.0
Cc1nc(-c2ccc(F)cc2)c(CC(=O)N2CCN(S(=O)(=O)c3cccc([N+](=O)[O-])c3)CC2)s1,0.3,1.5,.,0.4,-10.3,?,-1.5
N#CCCN(CCC#N)C(=O)COc1ccc(Cl)cc1Cl,-0.5,9.2,-7.4,-6.2,-26.1,18547*,4.5
Cc1cc(F)c(F)c(C(=O)N2CCCCC2C)c1Cl (stereo not drawn),11.5,7.6,5.4,4.5,-16.7,4283,1.2
CCn1cc(Cl)c(C(=O)NNC(=O)CCn2nc(C)c([N+](=O)[O-])c2C)n1,0.8,3.0,-3.3,-2.0,-7.1,2650,2.8
COc1ccccc1N1CCN(C(=O)c2cc(-c3ccc(Cl)c(Cl)c3)on2)CC1,4.6,6.8,-0.6,1.7,-1.4,16640*,2.8
Oc1[nH]c2ccccc2c1C=Nc1ccc2c(c1)OCCO2,.,.,8.5,-1.5,-41.8,2591,8.6
O=C(c1cccc(Br)c1)N1CCN(c2ccccn2)CC1,7.2,4.5,4.9,0.6,.,6118,2.6
CCOC(=O)CNC(=O)CSc1ncnc2c1cnn2-c1ccccc1,10.8,2.1,-11.0,-4.6,-18.8,4809,1.3
Oc1ccc(/C=N/n2c(-c3ccccc3)n[nH]c2=S)cc1,.,.,-3.1,.,-11.6,3739,.
CC(=O)Nc1cc(NC(C)=O)cc(C(=O)OCC(=O)N2CC(C)OC(C)C2)c1 (stereo not drawn),.,.,1.1,0.6,-12.1,4687,2.5
SMILES,Mtb hypoxia inh,Mtb hypoxia inh growth,BJeLR lethal,Sa ugtP lethal,PrP UTR inh,Bead autofluor,Sa RN4220 lethal
COc1ccc(/C=C/c2n[nH]c(=O)c(C#N)c2C)cc1,10.5,-3.3,-7.7,3.7,-14.6,4253,4.9
O=C(CCCN=C1NS(=O)(=O)c2ccccc21)OCC(=O)c1ccc(F)cc1,6.8,1.5,3.9,2.1,8.2,4189,1.1
CCCN(C(=O)CSc1nc2c(cnn2-c2ccccc2)c(=O)[nH]1)C1CCS(=O)(=O)C1 (stereo not drawn),4.0,8.6,-4.3,4.1,-24.4,9898,5.8
Cc1ccc(C=NNC(=O)CSc2nc3ccccc3n2Cc2ccc(Cl)cc2)o1,-2.6,6.6,.,-16.5,.,.,-6.7
COc1cc(OC)cc(C(=O)N2CCC(C(=O)Nc3ccc4c(c3)OCCO4)CC2)c1,.,.,4.0,.,-28.5,10518,.
COc1ccccc1CNC(=O)C1CCN(S(=O)(=O)c2ccc3c(c2)OCCO3)CC1,-6.7,8.1,-7.0,8.6,-21.9,3623,3.2
CCCn1c(N)c(C(=O)CN(C)CC(=O)Nc2c(C)cc(C)cc2C)c(=O)[nH]c1=O,-3.8,9.3,.,-1.3,-5.9,?,0.5
O=C1C=C(NCC2CCCO2)CC(c2ccccc2)C1 (stereo not drawn),7.0,10.8,12.5,-5.1,-25.7,2925,-9.2
CCOc1ccc2[nH]c3c(=O)n(CCc4ccc(OC)cc4)cnc3c2c1,2.3,0.2,-6.8,6.6,-12.2,3630,7.3
CC(C)(C)C(=O)/C(C#N)=C/c1ccc(O)cc1,.,.,-3.6,.,-16.9,3483,.
CCOc1ccccc1NC(=O)NNC(=O)COc1cccc(C)c1C,11.2,1.0,-1.4,2.2,-11.5,4703,1.7
CCC(Sc1ccc2nnc(-c3cccnc3)n2n1)C(=O)OC (stereo not drawn),12.5,-1.7,8.8,1.6,-15.6,3202,0.1
CC(C)COP(=O)(c1ccc(N(C)C)cc1)C(O)c1ccncc1 (stereo not drawn),8.4,20.3,-0.1,-2.2,-10.2,5977,0.5
COC(=O)c1sccc1NC(=O)Nc1ccc(Cl)c(Cl)c1,0.9,5.2,-14.1,-23.9,-56.5,2457,-20.7
CN(C)c1ccc(/C=N/NC(=O)CCCO)cc1,.,.,1.0,.,-34.0,4790,.
C=CCn1c(=O)c2c3c(sc2n2c(Nc4ccc(C(=O)OCC)cc4)nnc12)CCCC3,4.0,-1.4,-6.0,-9.8,-3.8,17959*,-0.6
CCOc1ccc(NCCC#N)cc1,1.9,4.0,1.4,-0.9,-2.9,?,1.3
CCc1ccc(NC(=O)CN(c2ccc(OC)cc2)S(=O)(=O)c2c(C)[nH]c(=O)[nH]c2=O)cc1,-7.5,2.9,-3.0,1.7,-9.8,3988,0.6
CC(O)C1CN=C(N)N1CCCCC1CCCCC1 (stereo not drawn),12.1,5.9,.,2.7,.,.,6.6
C=CCNC(=O)c1onc(CSc2cccc(Cl)c2)c1C(=O)O,6.1,3.1,1.1,4.2,-7.4,3524,7.6
COc1ccccc1NC(=O)c1nn(-c2ccc(F)c(F)c2)ccc1=O,.,.,-0.1,2.5,-3.8,3589,4.8
CC=C(C)C(=O)N1CC2(CC(c3cccc(NC(=O)COc4ccc(Cl)cc4)c3)=NO2)CC1C(N)=O (stereo not drawn),23.8,10.9,.,7.1,.,.,5.1
CCC(CC)C(=O)c1c[nH]c(C(=O)NCCCN2CCOCC2)c1,12.1,0.9,4.3,-5.6,-13.1,23037*,1.4
CCN(CC)S(=O)(=O)c1ccc(Cl)c(NC(=O)c2cc(Cl)cc(Cl)c2)c1,10.3,-3.1,9.6,-3.4,-17.5,8012,3.3
O=S(=O)(NCCc1ccccc1)c1ccc(F)cc1,-5.5,-1.0,-5.4,-8.2,-23.1,.,-5.2

# The final 2 compounds of the part before come first, to join the parts.
SMILES,Mtb hypoxia inh,Mtb hypoxia inh growth,BJeLR lethal,Sa ugtP lethal,PrP UTR inh,Bead autofluor,Sa RN4220 lethal
CCN(CC)S(=O)(=O)c1ccc(Cl)c(NC(=O)c2cc(Cl)cc(Cl)c2)c1,10.3,-3.1,9.6,-3.4,-17.5,8012,3.3
O=S(=O)(NCCc1ccccc1)c1ccc(F)cc1,-5.5,-1.0,-5.4,-8.2,-23.1,.,-5.2
COc1ccccc1N1C(=O)NC(=O)C(CCc2ccncc2)(CCc2ccncc2)C1=O,3.3,7.2,-8.0,-2.4,-0.8,4326,4.2
C=CCn1c(SCC(=O)Nc2cc(C)c(Cl)cc2OC)nnc1-c1ccco1,0.2,1.1,.,4.7,-10.4,10117,6.4
COc1cccc(NS(=O)(=O)c2ccc3c(c2)CCN3C(C)=O)c1,10.4,6.6,7.4,5.3,-31.3,3479,9.5
CCc1ccc(CCC(=O)Nc2sc(C)c(C)c2C(=O)OC)o1,-1.8,-2.0,-13.2,61.5,-20.3,21036*,2.1
Cc1ccc(C(=O)n2nc(-c3ccccc3)nc2NCc2ccco2)cc1,-1.2,4.6,-3.8,12.0,-13.9,8269,0.8
Cc1ccc(C(=O)NCCn2c(N)c(C#N)c3nc4ccccc4nc32)cc1,13.1,1.5,-5.2,4.3,-12.9,10848,5.6
Cc1c(NS(=O)(=O)c2cccc(C(=O)Nc3ccccc3)c2)c(=O)n(-c2ccccc2)n1C,9.9,5.3,.,1.5,-16.5,?,-0.8
O=C(CNc1ccc2ccccc2c1)NN=Cc1cc2ccccc2nc1Cl,2.1,-4.0,.,-4.0,.,.,3.4
O=C(NC1CCCCC1)C1CCN(S(=O)(=O)N2CCOCC2)CC1,7.7,11.1,4.3,-5.0,1.2,11025,-3.1
CC(C)(C)c1ccc(-c2nnc(SC3CCOC3=O)n2Cc2ccccc2)cc1 (stereo not drawn),-2.2,-2.1,-5.6,-10.9,-34.5,2147,5.5
COc1cccc(C=NNC(=S)NC2CC3CCC2C3)c1OC (stereo not drawn),-3.1,-2.2,.,24.5,.,.,3.9
Cn1c(/C=N/c2nc3ccccc3[nH]2)nc2ccccc21,.,.,6.1,.,-65.3,8693,.
COc1ccc2[nH]cc(/C=C/c3cc[n+](C)cc3)c2c1,-3.2,4.6,10.3,-1.0,-8.5,7963,-0.1
CCOC(=O)c1c(Cc2ccccc2)c[nH]c1C,-7.3,1.0,2.1,-7.9,-33.8,4658,3.0
CC1CN(C(=O)N2CCOCC2)CCN1C(=O)N1CCOCC1 (stereo not drawn),-7.8,5.8,11.0,8.0,-5.6,1971,-1.9
COc1cc(C(=O)O[C@H]2CC(C)=CCC[C@@]3(C)O[C@@H]3[C@H](O)[C@@H]2C(C)C)cc(OC)c1OC,8.3,5.6,.,-4.7,.,.,5.7
CCOc1ccccc1OCCOCCN1CC(C)OC(C)C1 (stereo not drawn),.,.,1.6,.,-10.1,?,.
CC(C)CNC(=O)COC(=O)c1c2c(nc3ccccc13)CCC2,-4.6,-2.8,-4.6,10.1,-10.0,3460,3.9

# By substructure: the entries above containing a Cl atom
SMILES,Mtb hypoxia inh,Mtb hypoxia inh growth,BJeLR lethal,Sa ugtP lethal,PrP UTR inh,Bead autofluor,Sa RN4220 lethal
O=C(Nc1cccnc1Cl)c1cc(-c2ccco2)on1,9.5,4.8,-6.3,6.6,-117.2,6736,3.4
N#CCCN(CCC#N)C(=O)COc1ccc(Cl)cc1Cl,-0.5,9.2,-7.4,-6.2,-26.1,18547*,4.5
Cc1cc(F)c(F)c(C(=O)N2CCCCC2C)c1Cl (stereo not drawn),11.5,7.6,5.4,4.5,-16.7,4283,1.2
CCn1cc(Cl)c(C(=O)NNC(=O)CCn2nc(C)c([N+](=O)[O-])c2C)n1,0.8,3.0,-3.3,-2.0,-7.1,2650,2.8
COc1ccccc1N1CCN(C(=O)c2cc(-c3ccc(Cl)c(Cl)c3)on2)CC1,4.6,6.8,-0.6,1.7,-1.4,16640*,2.8
Cc1ccc(C=NNC(=O)CSc2nc3ccccc3n2Cc2ccc(Cl)cc2)o1,-2.6,6.6,.,-16.5,.,.,-6.7
COC(=O)c1sccc1NC(=O)Nc1ccc(Cl)c(Cl)c1,0.9,5.2,-14.1,-23.9,-56.5,2457,-20.7
C=CCNC(=O)c1onc(CSc2cccc(Cl)c2)c1C(=O)O,6.1,3.1,1.1,4.2,-7.4,3524,7.6
CC=C(C)C(=O)N1CC2(CC(c3cccc(NC(=O)COc4ccc(Cl)cc4)c3)=NO2)CC1C(N)=O (stereo not drawn),23.8,10.9,.,7.1,.,.,5.1
CCN(CC)S(=O)(=O)c1ccc(Cl)c(NC(=O)c2cc(Cl)cc(Cl)c2)c1,10.3,-3.1,9.6,-3.4,-17.5,8012,3.3
C=CCn1c(SCC(=O)Nc2cc(C)c(Cl)cc2OC)nnc1-c1ccco1,0.2,1.1,.,4.7,-10.4,10117,6.4
O=C(CNc1ccc2ccccc2c1)NN=Cc1cc2ccccc2nc1Cl,2.1,-4.0,.,-4.0,.,.,3.4
